eIF4H inh – inhibitors of RNA binding by human eIF4H; Q15056; eIF4H fluorescence polarization binding assay; inhibition, % at 35 µM; 290,000 tested, 0.94% active;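 active means 50% or more with normal probe brightness, or confirmed in later tests; inconclusive means above 50% with abnormal brightness, or retests that disagree; inactive means below 50% or failed in later tests; about a fifth of its hits are not listed in these tables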;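 further: calls also rest on retests at 20 µM and on dose response follow-up; 0% = protein and probe with vehicle and 100% = probe without protein; strong numbers were not always called active; many hits fall short of the cut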
Rce1 inhib – yeast Ras-converting enzyme inhibition | AID 2563 | calls only | 290,000 tested, 0.27% active | yeast membranes, quenched prenylated peptide cleavage fluorescence;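 active means fall in fluorescence gain of 50% or more versus controls, with final raw signal at or below 3038400; inconclusive means same 50% fall but final raw signal above 3038400; inactive means fall in fluorescence gain under 50%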;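 further: plate controls were neutral control wells for no effect and wells lacking membranes for full effect; tested at 10 µM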
Target sequence (Q03530 whole entry, looked up): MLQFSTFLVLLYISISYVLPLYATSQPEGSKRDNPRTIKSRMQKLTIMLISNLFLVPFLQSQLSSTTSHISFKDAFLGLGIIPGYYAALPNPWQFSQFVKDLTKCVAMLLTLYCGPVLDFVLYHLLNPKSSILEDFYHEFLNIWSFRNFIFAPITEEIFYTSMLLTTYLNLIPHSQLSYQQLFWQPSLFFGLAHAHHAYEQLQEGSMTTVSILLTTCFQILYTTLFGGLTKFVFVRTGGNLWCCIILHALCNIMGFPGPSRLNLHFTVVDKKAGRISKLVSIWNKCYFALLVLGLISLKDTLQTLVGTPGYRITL
Yeast UUG start – yeast start codon fidelity modulation | AID 602363 | 350,000 tested, 0.13% active | S. cerevisiae UUG-firefly luciferase reporter, luminescence/redox ratio | activity score, % at 18.7 µM;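 active means replicate mean at a twofold rise or more, about +100% in these data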;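 further: firefly luciferase made from a UUG start codon reports start codon fidelity; reporter light over untreated wells divided by growth signal over untreated wells; some hits fall short of that in this replicate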
MT1-MMP act inh – inhibitors of human MT1-MMP activation | P50281 | HT1080 RFP-PRO-GFP cells, GFP/RFP ratio fluorescence, overnight; percent of plate control window, DMSO zero | GFP/RFP ratio change, % at 20 µM | 360,000 tested, 0.061% active;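 active means GFP/RFP ratio change of at least 30% with cell ATP level not reduced by more than half and red fluorescence within 50% of control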; further: strong numbers were not always called active
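Assay system: HT1080 RFP-PRO-GFP cells | Dosing: 20 µM single dose, 1% DMSO | Incubation: Cells overnight before dosing, compound overnight, 37 °C, 5% CO2 | Evaluation: GFP/RFP fluorescence ratio | Control set: DMSO-only wells and HT1080 RFP-L50D-GFP cell wells as references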
HIV Env fusion – HIV envelope-mediated fusion inhibition; HeLa-JRFL Env/CEM21 cell fusion, luciferase; inhibition, % at 12.3 µM; 360,000 tested, 1.1% active;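 active means mean replicate inhibition score of at least 50 and every replicate individually at or above 50; inconclusive means only one of the two criteria met; inactive means mean below 50 and not all replicates reaching 50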;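 further: 0% = plate neutral controls and 100% = maraviroc near 300 nM; one replicate is shown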
CSC inhib – cancer stem cell inhibition; inhibition, % at 7.5 µM; AID 2717; cancer stem cell-like cells viability, luminescence; 300,000 tested, 1.1% active;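 active means mean at 75% or more and at least half the replicates too; inconclusive means mean and replicates disagree; tested in HMLE shEcad cells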;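 further: 0% = median of negative and 100% = median of positive control wells; the first replicate is given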
PABP FP inh – PABP-poly(A) binding inhibition | inhibition, % at 35 µM | P11940 | PABP-poly(A) RNA binding, fluorescence polarization | 290,000 tested, 1% active;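 active means 50% or more with normal probe brightness, or confirmed in later tests; inconclusive means above 50% with abnormal brightness, or retests that disagree; inactive means below 50% or failed in later tests; about a fifth of its hits are not listed in these tables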;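 further: calls also rest on retests at 20 µM and on dose response follow-up; controls were probe without protein and protein plus probe with vehicle; some compounds called inactive have numbers as strong as hits; many hits fall short of the cut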
eIF4H inh retest – recorded beside eIF4H inh, whose call it bears; inhibition, %; compound at 20 µM; confirmation average;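 mean of two retest wells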
PABP FP inh retest – recorded beside PABP FP inh, whose call it bears; inhibition, %; compound at 20 µM; confirmation repeats;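 mean of two retest wells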
MT1-MMP act inh RFP – further read-out of MT1-MMP act inh, marked with its call; RFP signal change, %; measured here: RFP expression control read;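 0 = vehicle wells; hits needed this value within 50% of zero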
* hit, by the source's call; i = inactive; ? = inconclusive; · = not tested or not shown; + = active, no number.

SMILES	eIF4H inh	Rce1 inhib	Yeast UUG start	MT1-MMP act inh	MT1-MMP act inh RFP	HIV Env fusion	CSC inhib	PABP FP inh	others
COc1cc(C)cc2oc(=O)c(CC(=O)N3CCN(C(=O)C4COc5ccccc5O4)CC3)c(C)c12 (configuration not stated)	-18.8	i	-4.7	1.2	-0.5	0.6	-15.9	-1.2
COc1c(C)cc(C(=O)C2CCCN(C(=O)c3snnc3C)C2)cc1C (configuration not stated)	-4.7	i	·	-2.1	0.8	-2.9	4.6	2.2
O=C1NC(=O)c2cc(NC(=O)C3CCCO3)ccc21 (configuration not stated)	-0.3	i	-13.4	3.5	5.6	-67.8	-2.8	-3.0
CCc1noc(C)c1C(=O)Nc1nc2ccc(S(C)(=O)=O)cc2s1	·	i	2.8	-1.8	5.4	-12.6	8.4	·
COc1ccc(C(=O)CC(c2ccccc2)C2C(=O)CCCC2=O)cc1 (configuration not stated)	44.2	i	-4.4	-1.6	-3.4	·	-6.9	21.8
C=CCn1cc(/C=N/N2C(=O)C3C4C=CC(C4)C3C2=O)c2ccccc21 (configuration not stated)	-0.9	i	-12.0	-4.8	-2.7	-0.8	-17.8	1.6
CC1=CC(C)(C)n2c(O)c(N=NC(N)=S)c3cc(C)cc1c32	7.0	i	7.2	-5.2	-4.2	-34.8	-2.2	-7.5
COc1ccc(C(=O)N/N=C(\C)CC(=O)Nc2ccc(N(C)C)cc2)c(OC)c1	1.1	i	-10.1	3.7	2.0	21.0	-20.1	8.9
CCN(CC)c1ccc(NC(=O)c2nc3nc(C)cc(C(F)F)n3n2)cc1	0.5	i	-14.5	-6.5	1.7	-7.4	-7.1	-8.0
CC1=NN2C(=N)/C(=C\c3cc(C)n(-c4cccc(C)c4)c3C)C(=O)N=C2S1	18.3	i	1.9	-3.5	1.9	12.5	4.0	9.1
N#C/C(=C\c1ccc(OCc2ccc(Cl)cc2)cc1)C(=O)Nc1cccc(C(=O)O)c1	83.6	i	-0.7	-0.5	-6.0	-55.7	8.1	8.2	eIF4H inh retest=-6.2;PABP FP inh retest=7.1
N#Cc1cccc(NC(=O)CSc2nnc(C3CC3)n2C2CC2)c1	·	·	0.3	-1.8	1.4	-7.7	-8.8	·
Cc1ccc(NC(=O)CN2C(=O)CSc3ccc(S(=O)(=O)N4CCCCC4)cc32)cc1	·	i	-16.9	-1.0	-4.2	-0.4	0.7	·
CCCCOc1ccc(C2(C)CC(=O)NC2=O)cc1 (configuration not stated)	7.3	i	-1.7	-1.1	-1.8	·	-2.8	-1.4
Fc1ccc(-c2nnc(CSc3nnc(-c4cccs4)o3)o2)cc1	7.9	i	·	8.6	2.4	·	6.2	-5.4
O=C(CSc1ncccc1C(=O)O)NCCC1=CCCCC1	-1.1	i	-10.0	7.1	6.1	-88.8	·	-2.4
Cc1nn(-c2ccccc2)nc1CNC(=O)C(C)Cc1ccccc1 (configuration not stated)	1.0	i	-10.0	-0.2	2.3	-1.5	-1.1	7.4
Cc1nn(C)cc1S(=O)(=O)NC1CCCC1	-5.7	i	·	1.0	4.8	9.3	-0.6	-4.0
COc1ccc(/C=N/OCC(=O)OCC(=O)N(C)c2ccccc2)cc1	·	i	-0.8	8.8	1.0	5.4	-7.0	·
O=C(COC(=O)[C@H](Cc1ccccc1)NC(=O)c1cccs1)Nc1cc(F)ccc1F	-7.5	i	·	-2.2	2.5	·	-2.4	-6.4
CCOC(=O)NC(O)C(=O)c1ccc(F)cc1 (configuration not stated)	-0.2	i	·	-1.8	1.5	10.9	-11.6	0.4
C=C(C)CSc1nc2c(c(=O)[nH]c(=O)n2C)n1CCC(C)C	-11.7	i	-1.3	3.2	-5.8	0.9	50.1	-0.5
Cc1nc(N)sc1-c1ccccc1	·	·	-8.5	-1.5	4.0	0.3	·	·
Cc1cccnc1CN1CCN(Cc2nc(C(c3ccccc3)c3ccccc3)no2)CC1	0.8	i	9.2	-3.4	-4.4	-8.9	-1.6	-0.6
COc1ccc(C2C3=C(CC(c4ccco4)CC3=O)Nc3ccccc3N2C(C)=O)cc1 (configuration not stated)	-5.7	i	-5.2	-3.5	-2.1	·	0.8	0.1
COc1ccc(C(=O)N/N=C(\C)CC(=O)Nc2cccc(C(F)(F)F)c2)cc1	-6.1	i	-27.9	-1.6	0.3	2.0	·	-8.0
O=C(Nc1nnc(Cc2ccccc2)s1)Nc1ccccc1F	-1.8	i	-3.0	2.0	-5.0	-19.5	53.8	-5.4
CCCN1CCC2(CC1)C(C#N)=C(N)Oc1c2sc2nc(C)cc(C)c12	29.6	i	·	-60.9	13.2	·	-4.7	-3.4
CC[C@@]1(C(=O)OC)N[C@H](CN(C)S(=O)(=O)c2ccc(OC(F)(F)F)cc2)[C@@H]2C(=O)N(C)C(=O)[C@@H]21	·	·	13.3	17.5	-1.2	-23.0	·	·
COc1ccc(NC(=O)c2sc3nc(N4CCOCC4)c4c(c3c2N)CC(C)(C)OC4)c(OC)c1	-4.8	i	-2.6	-0.8	-4.1	-11.1	-4.9	7.2
CSc1ncccc1C(=O)N1CCN(S(=O)(=O)c2ccc3c(c2)OCCO3)CC1	·	·	-7.7	2.3	-1.5	·	-20.2	·
N#CCC(=O)Nc1ccc(C(=O)NNC(=O)c2ccccc2-n2cccc2)cc1	·	·	-12.5	-4.0	1.7	3.6	-1.2	·
O=C(CSc1nnnn1Cc1ccccc1)c1ccccc1	-5.7	i	-19.3	-9.9	3.7	-54.6	-7.7	-6.6
COc1ccc(NC(=O)CSc2ccc(F)cc2)cc1S(=O)(=O)N1CCCCC1	-10.1	i	·	-1.6	-14.0	?	·	-14.0
Cc1nn(C)c(Oc2ccc(Cl)cc2)c1C(=O)O	-11.9	i	-11.3	-9.2	-5.0	-89.3	·	9.0
OCC[C@@H]1C[C@@H](O)[C@H](O)[C@@]2(Cc3ccccc3CCO2)O1	-0.5	i	-15.6	-2.5	4.9	-5.8	-5.8	5.6
CCOC(=O)Cc1ncccc1C(=O)Nc1ccc(Oc2ccccc2)cc1	3.4	i	·	8.5	1.6	2.2	0.8	12.0
N=c1c(C(=O)NCCc2ccccc2)cc2c(=O)n3ccccc3nc2n1CCCN1CCOCC1	10.2	·	-8.3	1.1	-1.7	1.3	-4.6	7.2
CC(C)(C)c1ccc(OCC(=O)N/N=C/c2cc(Br)ccc2OC(=O)c2ccco2)cc1	-4.3	i	-9.1	3.3	5.1	·	100.6*	-6.9
Cc1ccc(Cc2c(-c3ccc(C)cc3)nc3ccc(Cl)cn23)cc1	·	·	-18.0	-3.6	-4.0	-4.0	·	·
Cc1oc(-c2ccc(Cl)cc2)nc1CS(=O)CC(=O)NC1CCCCC1 (configuration not stated)	-9.3	i	4.8	-0.7	-2.2	1.0	-9.9	4.3
COc1ccccc1N1CCN(C(=O)c2cc3cc(F)ccc3[nH]2)CC1	8.6	i	9.3	0.5	-2.4	14.6	-4.9	2.3
O=C(CSc1nnc2ccccn12)NCCc1ccc(Cl)cc1	-8.9	i	-9.1	1.7	1.9	0.5	-5.7	51.5	eIF4H inh retest=-2.8;PABP FP inh retest=4.5
CC(C)C(=O)N1CCCC1(C)C(=O)Nc1ccc(-n2cccc2)cc1 (configuration not stated)	·	·	-14.8	-2.9	4.2	-34.0	·	·
Cc1ccc(C(=O)Nc2c(-c3cccs3)c(=O)c3ccccc3n2C)cc1	5.1	·	-7.8	-14.1	-3.1	9.0	-3.1	6.9
COC(=O)c1ccc(C2C3=C(Nc4nnnn42)c2ccccc2OC3)cc1 (configuration not stated)	3.6	i	-10.4	-1.0	1.6	12.3	-6.0	0.1
C/C(N)=C(/C#N)C(=O)COC(=O)CNS(=O)(=O)c1ccc(F)c(F)c1F	13.1	i	-16.4	0.3	1.4	-0.1	-13.0	-30.7
COc1ccc(-c2cc3c(=O)n(CC(=O)N4CCN(C)CC4)ncn3n2)cc1	-11.3	i	-26.5	-2.5	2.5	-15.9	59.2	-13.4
CCCn1c(SCC(=O)NC2CCCCC2)nnc1-c1ccncc1	-9.7	·	-14.6	5.5	6.5	-98.4	15.3	-6.7
CC1(C)OC(C)(C)/C(=C/Nc2ccc(O)cc2)C1=O	103.9	i	-51.6	-6.2	3.1	-3.5	1.5	7.8	eIF4H inh retest=9.9;PABP FP inh retest=46.0

(next part)
SMILES	eIF4H inh	Rce1 inhib	Yeast UUG start	MT1-MMP act inh	MT1-MMP act inh RFP	HIV Env fusion	CSC inhib	PABP FP inh	others
CCOc1cc(NC(=O)C(C)C)c(OCC)cc1NC(=O)Nc1ccccc1	-7.6	i	-34.6	2.9	1.4	6.0	-3.4	-1.2
CNc1cncc(-c2ccc(CN(C)C)cc2)n1	·	·	-5.1	2.2	2.7	-8.8	·	·
COc1ccc(-c2csc(NC(=O)C3CC(=O)N(Cc4ccco4)C3)n2)cc1 (configuration not stated)	9.3	i	·	3.6	-9.3	1.4	-4.0	?
O=C(Nc1nnc(C2CC2)o1)c1ccc(S(=O)(=O)N2CCCCC2)cc1	-15.1	i	-9.6	2.0	-0.6	12.0	39.5	-0.7
O=C(Nc1ccc(Cl)c(S(=O)(=O)N2CCCC2)c1)c1cc(=O)[nH]c2ccccc12	·	·	-8.0	0.6	-0.1	24.7	2.3	·
COc1ccc(C(NC(=O)c2ccco2)c2ccc(OC)c(OC)c2)cc1OC	-5.7	i	-14.2	5.2	2.8	·	-5.7	7.5
COC(=O)c1c(-c2ccc(S(C)(=O)=O)cc2)sc2ccc(OC)cc12	·	·	-25.5	-1.9	-8.4	-132.8	0.0	·
Nc1nnc(SCC(=O)OCC(=O)Nc2ccc(Br)cc2F)s1	-5.4	i	·	-0.4	0.4	8.2	-12.8	-1.5
O=C(C1=NN(c2ccccc2)C(=O)CC1)N1CCc2ccccc2C1	-6.3	i	-5.5	-2.9	-0.1	2.9	-6.4	1.9
O=C1OCCN1C(=O)[C@H]1[C@H](c2ccc(F)cc2)C(c2ccc(F)cc2)=NN1c1ccc(Br)cc1	3.7	+	-7.1	-7.5	-1.2	·	6.6	-1.4

Random excerpt: 3 compounds from above, in no set order.
SMILES	eIF4H inh	Rce1 inhib	Yeast UUG start	MT1-MMP act inh	MT1-MMP act inh RFP	HIV Env fusion	CSC inhib	PABP FP inh	others
COc1ccc(C(=O)CC(c2ccccc2)C2C(=O)CCCC2=O)cc1 (configuration not stated)	44.2	i	-4.4	-1.6	-3.4	·	-6.9	21.8
CCc1noc(C)c1C(=O)Nc1nc2ccc(S(C)(=O)=O)cc2s1	·	i	2.8	-1.8	5.4	-12.6	8.4	·
O=C1OCCN1C(=O)[C@H]1[C@H](c2ccc(F)cc2)C(c2ccc(F)cc2)=NN1c1ccc(Br)cc1	3.7	+	-7.1	-7.5	-1.2	·	6.6	-1.4

(next part)
SMILES	eIF4H inh	Rce1 inhib	Yeast UUG start	MT1-MMP act inh	MT1-MMP act inh RFP	HIV Env fusion	CSC inhib	PABP FP inh	others
CC(C)Cn1c(-c2csc3ccccc23)n[nH]c1=S	3.9	i	-21.7	6.5	0.5	-33.6	-8.7	7.2
CC(Sc1ccccc1)C(=O)N/N=C/c1cccnc1 (configuration not stated)	-2.3	i	-5.7	-0.3	2.8	-1.4	-7.2	-1.0
O=C(c1ccc(Cl)cc1[N+](=O)[O-])N(Cc1ccccc1)Cc1ccccc1	-0.3	i	·	·	·	·	19.9	-10.9
COc1ccc(C(=O)CSc2nnc(COc3ccccc3)n2Cc2ccco2)cc1	-5.4	i	-18.2	2.3	-3.7	34.6	56.2	-8.1

Screening data (PubChem BioAssay)
